MbtI inh = MbtI salicylate synthase inhibition. 100,000 compounds, 0.89% hits. inhibition, %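 (about 17 µg/mL by stock and volumes)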. purified MbtI enzyme, fluorescence intensity read-out. P9WFX0;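 active = above 50% in both replicates, above 80% if mildly self-fluorescent; inactive = the rest, strongly fluorescent compounds included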;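 note: 0% = mean of negative and 100% = mean of positive controls; one replicate is shown; some compounds called inactive have numbers as strong as hits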
Target sequence (P9WFX0 whole entry, looked up): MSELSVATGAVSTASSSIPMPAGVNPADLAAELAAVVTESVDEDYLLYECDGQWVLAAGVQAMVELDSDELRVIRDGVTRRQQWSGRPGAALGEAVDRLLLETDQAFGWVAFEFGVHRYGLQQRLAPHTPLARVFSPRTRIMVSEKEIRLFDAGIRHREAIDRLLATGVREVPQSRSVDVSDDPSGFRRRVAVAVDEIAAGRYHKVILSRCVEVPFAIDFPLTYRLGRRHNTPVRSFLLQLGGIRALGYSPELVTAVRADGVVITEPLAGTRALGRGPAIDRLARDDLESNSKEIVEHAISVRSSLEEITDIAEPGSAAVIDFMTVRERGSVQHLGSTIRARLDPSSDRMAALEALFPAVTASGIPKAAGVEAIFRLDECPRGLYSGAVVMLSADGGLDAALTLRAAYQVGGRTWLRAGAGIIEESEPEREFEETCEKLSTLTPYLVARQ
Mtb MenB inh = Mtb MenB enzyme inhibition; P9WNP5; MenB enzyme assay, absorbance read-out; some hits fall short of the stated cut; inhibition, %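 (about 12 µg/mL by stock and volumes)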; 100,000 compounds, 0.43% hits; AID 540299;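 active = mean of two replicates above 30%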;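 note: 0% = no compound and 100% = wells with inactive enzyme; the first replicate is given; strong numbers were not always called active; inactives centre near -10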
Target sequence (P9WNP5 whole entry, looked up): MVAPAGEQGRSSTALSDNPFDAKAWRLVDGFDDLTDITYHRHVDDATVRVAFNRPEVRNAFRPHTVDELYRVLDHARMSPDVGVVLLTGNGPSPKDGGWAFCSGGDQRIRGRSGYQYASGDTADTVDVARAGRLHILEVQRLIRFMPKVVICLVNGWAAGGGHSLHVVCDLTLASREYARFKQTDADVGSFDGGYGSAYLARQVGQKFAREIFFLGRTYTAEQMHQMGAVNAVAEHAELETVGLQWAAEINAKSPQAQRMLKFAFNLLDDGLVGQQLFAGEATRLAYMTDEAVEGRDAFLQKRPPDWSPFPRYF
PV pol inh = inhibitors of poliovirus RNA polymerase binding and polymerization; P03300; poliovirus polymerase elongation, fluorescence polarization; stronger effect = lower value; % elongation, % (compound at 16.7 µg/mL); 150,000 compounds, 0.66% hits; AID 588519; in the data active = % elongation below about 90%; note: some results filed as inactive read as strong as hits
PV pol inh intensity = also measured in PV pol inh; calls as there; % elongation; measured here: total intensity read-out; formula for this scale not given here;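 total fluorescence in place of polarization; lower means less elongation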
The depositor's hits bear a star.

Cc1ccc(CN(CC(=O)O)Cc2cn(-c3ccccc3)nc2-c2cccs2)cc1 was read as MbtI inh 9.7, Mtb MenB inh 2.9, PV pol inh 99.0 and PV pol inh intensity 99.0.
For CNC(=O)C(C)n1c2ccccc2c2cn[nH]c(=O)c21 (stereo not given) the results were MbtI inh 80.2, Mtb MenB inh 6.6, PV pol inh 104.0 and PV pol inh intensity 107.0.
For O=C(/C=C1/SC(=O)NC1=O)Nc1nccs1 the results were MbtI inh -1.1, Mtb MenB inh 6.8, PV pol inh 96.0 and PV pol inh intensity 98.0.
For Cc1nn(CCC(=O)NCc2ccccc2)c(=O)c2nn(-c3ccccc3)c(C)c12 the results were MbtI inh -19.9, Mtb MenB inh 5.3, PV pol inh 104.0 and PV pol inh intensity 104.0.
N#Cc1ccccc1CSCCNc1ncnc2c1oc1ccccc12 was read as MbtI inh -10.6, Mtb MenB inh -25.0, PV pol inh 101.0 and PV pol inh intensity 109.0.
`Cc1ccc2scc(CC(=O)O)c2c1` gave MbtI inh 2.2, Mtb MenB inh -56.6, PV pol inh 101.0 and PV pol inh intensity 100.0.
`CNC(=O)COC(=O)c1c(-c2c(F)cccc2Cl)noc1C` gave MbtI inh 0.1, Mtb MenB inh 7.6, PV pol inh 103.0 and PV pol inh intensity 107.0.
Screening O=C(O)CSc1c2c(nc3cc(C(=O)Nc4ccc(F)c(Cl)c4)ccc13)CCCC2 returned MbtI inh 3.9, Mtb MenB inh -12.5, PV pol inh 101.0 and PV pol inh intensity 96.0.
`Cc1cc2nc(COC(=O)C(C)C)cc(=O)n2o1` gave MbtI inh -12.2, Mtb MenB inh -9.4, PV pol inh 101.0 and PV pol inh intensity 102.0.
`O=C(CSc1n[nH]c(=O)n1C1CC1)NC1CCCC1` gave MbtI inh 8.9, Mtb MenB inh 8.4, PV pol inh 103.0 and PV pol inh intensity 107.0.
For CCOC(=O)C1CCN(C(=O)COC(=O)c2ccc(N(C)C)cc2)CC1 the results were MbtI inh 2.0, Mtb MenB inh -6.9, PV pol inh 102.0 and PV pol inh intensity 108.0.
Screening COc1ccc(CNC(=O)c2cc(Nc3ccccc3OC)nc3ccccc23)cc1 returned MbtI inh 16.0, Mtb MenB inh -32.3, PV pol inh 103.0 and PV pol inh intensity 103.0.
For S=C(c1cccs1)N1CCOCC1 the results were MbtI inh 70.0*, Mtb MenB inh -7.5, PV pol inh 100.0 and PV pol inh intensity 101.0.
Screening Cc1cc(C)c(NCc2ccccc2O)c(C)c1 returned MbtI inh -8.6, Mtb MenB inh -1.6, PV pol inh 100.0 and PV pol inh intensity 103.0.
For O=C(CSc1ncn[nH]1)Nc1ccccc1 the results were Mtb MenB inh -2.1, PV pol inh 103.0 and PV pol inh intensity 108.0.
NNC(=O)c1cc(-c2ccccc2)nc2ccccc12 was read as MbtI inh -6.1, Mtb MenB inh 7.1, PV pol inh 101.0 and PV pol inh intensity 104.0.
`O=C(NCc1cccnc1)C1=CCN(S(=O)(=O)c2ccccc2)CC1` gave MbtI inh 2.3, Mtb MenB inh 8.6, PV pol inh 102.0 and PV pol inh intensity 96.0.
C=Cn1ccc(CCC)c1-c1cccs1 was read as MbtI inh 2.9, Mtb MenB inh -13.0, PV pol inh 114.0 and PV pol inh intensity 138.0.
For Brc1cccc(C=NN2CCN(c3ccccn3)CC2)c1 the results were MbtI inh 8.1, Mtb MenB inh -1.7, PV pol inh 103.0 and PV pol inh intensity 102.0.
For Cc1ccc(S(=O)(=O)NCCc2csc(C)n2)cc1 the results were MbtI inh 3.6, Mtb MenB inh -11.3, PV pol inh 105.0 and PV pol inh intensity 107.0.
CSc1nn2c(=O)c(C)nnc2s1 was read as MbtI inh 6.2, Mtb MenB inh -1.5, PV pol inh 101.0 and PV pol inh intensity 97.0.
Screening O=C(/C=C/c1cn(-c2ccccc2)nc1-c1cccs1)NC1CCC(O)CC1 (stereo not given) returned MbtI inh -161.0, PV pol inh 99.0 and PV pol inh intensity 100.0.
`O=c1[nH]c(CN2CCCC2)nc2c(Br)cc(Br)cc12` gave MbtI inh 3.9, Mtb MenB inh 2.5, PV pol inh 109.0 and PV pol inh intensity 115.0.
Screening C/C(=N\NC(=O)C1CC1)c1ccccc1O returned MbtI inh 12.7, Mtb MenB inh -9.5, PV pol inh 107.0 and PV pol inh intensity 112.0.
For CCc1ccc(OCCCC(=O)Nc2ncn[nH]2)cc1 the results were Mtb MenB inh -2.4, PV pol inh 99.0 and PV pol inh intensity 107.0.
For O=C(O)CCSc1nc2ccccc2n1C1CCCCC1 the results were MbtI inh -1.9, Mtb MenB inh -23.7, PV pol inh 104.0 and PV pol inh intensity 104.0.
Screening CC(NC(=O)c1ccc(C#N)cc1)C1CC2CCC1C2 (stereo not given) returned MbtI inh 24.2, Mtb MenB inh -0.6, PV pol inh 100.0 and PV pol inh intensity 103.0.
Screening Cn1c(=O)[nH]c(=O)c2c1ncn2Cc1ccc(F)cc1 returned MbtI inh -2.8, Mtb MenB inh -18.0, PV pol inh 103.0 and PV pol inh intensity 108.0.
Screening CCOc1cccc2c1CCNC2=O returned MbtI inh 2.4, Mtb MenB inh -16.6, PV pol inh 104.0 and PV pol inh intensity 106.0.
Screening CCOC(=O)C(C(O)c1ccccc1)N1CCN(S(=O)(=O)c2ccc(C)cc2)CC1 (stereo not given) returned MbtI inh -0.1, Mtb MenB inh 2.5, PV pol inh 102.0 and PV pol inh intensity 106.0.
`CCOC(=O)C1CCN(C(=O)C2Cc3ccccc3N2C(=O)OCc2ccccc2)CC1` (stereo not given) gave MbtI inh -11.1, Mtb MenB inh 6.6, PV pol inh 108.0 and PV pol inh intensity 115.0.
`CCN1CCc2c(sc(=NC(=O)c3ccc(F)cc3)n2C(=O)c2ccc(F)cc2)C1` gave MbtI inh 93.0, Mtb MenB inh -13.1, PV pol inh 65.0* and PV pol inh intensity 73.0*.
COc1ccc(/C=C2\Sc3ccc(C(=O)N4CCOCC4)cc3N(C)C2=O)cc1 was read as MbtI inh 10.7, Mtb MenB inh -18.3, PV pol inh 100.0 and PV pol inh intensity 102.0.
CCC(CO)N=Cc1c(O)n(-c2ccccc2F)c(=O)c2ccccc12 (stereo not given) was read as MbtI inh -0.3, PV pol inh 101.0 and PV pol inh intensity 98.0.
For O=C(c1ccc(O)cc1)c1ccc(O)cc1O the results were MbtI inh 4.5, Mtb MenB inh -11.2, PV pol inh 96.0 and PV pol inh intensity 111.0.
For CN(C)CC#Cc1ccc(C=C(C#N)C#N)cc1 the results were MbtI inh -23.5, Mtb MenB inh 8.6, PV pol inh 102.0 and PV pol inh intensity 106.0.
For Cn1ncc2c(N3CCCC3CO)ncnc21 (stereo not given) the results were MbtI inh 17.5, Mtb MenB inh -19.0, PV pol inh 102.0 and PV pol inh intensity 101.0.
For Cc1ccc(C2=NC(C(F)(F)F)(C(F)(F)F)N=C3SCCN32)cc1 the results were MbtI inh -7.1, Mtb MenB inh 1.8, PV pol inh 104.0 and PV pol inh intensity 102.0.
`COc1ccc(O)c(-c2cc(C(F)(F)C(F)F)nc(-c3ccccc3)n2)c1` gave MbtI inh -7.2, Mtb MenB inh 11.5, PV pol inh 100.0 and PV pol inh intensity 100.0.
COC(=O)c1ccsc1N1C(=O)C=CC1=O was read as MbtI inh 93.7* and Mtb MenB inh -25.4.
CN(C)C(=O)COC(=O)c1ccccc1Oc1ccccc1 was read as MbtI inh 4.3, Mtb MenB inh -24.9, PV pol inh 104.0 and PV pol inh intensity 99.0.
`N#Cc1ccc(C(=O)OCC(=O)Nc2ccccc2C#N)cc1` gave MbtI inh -1.7, Mtb MenB inh -36.4, PV pol inh 103.0 and PV pol inh intensity 107.0.
Screening N#C/C(=C\c1ccccc1)C(=O)Nc1cccc2c1C(=O)NC2=O returned MbtI inh 11.7, Mtb MenB inh -13.2, PV pol inh 103.0 and PV pol inh intensity 106.0.
For O=C(O)c1cccc(-n2cnc3ccccc3c2=O)c1 the results were MbtI inh 14.6, Mtb MenB inh 0.2, PV pol inh 101.0 and PV pol inh intensity 97.0.
Screening COc1ccccc1Nc1cccc2nonc12 returned MbtI inh -0.7, Mtb MenB inh -37.2, PV pol inh 76.0 and PV pol inh intensity 183.0.
For Cc1cc2c(n1-c1ccc(C(=O)NC(C)C)cc1)CCCC2 the results were MbtI inh 1.1, Mtb MenB inh -12.1, PV pol inh 102.0 and PV pol inh intensity 104.0.
`O=c1oc(-c2ccco2)cc(-c2ccccc2)c1-c1ccccc1` gave MbtI inh 5.2, Mtb MenB inh 15.1, PV pol inh 101.0 and PV pol inh intensity 103.0.
`O=C(CCOc1ccccc1)Nc1ccccc1N1CCOCC1` gave MbtI inh -19.8, Mtb MenB inh -28.0, PV pol inh 107.0 and PV pol inh intensity 110.0.
`Cc1c(C#N)c2ccccc2n1CC(=O)N1CCCCC1C` (stereo not given) gave Mtb MenB inh -13.2, PV pol inh 106.0 and PV pol inh intensity 110.0.
`O=C(NCc1ccc2c(c1)OCO2)c1c[nH]c2ccc(S(=O)(=O)N3CCOCC3)cc2c1=O` gave MbtI inh inactive, Mtb MenB inh -19.4, PV pol inh 99.0 and PV pol inh intensity 102.0.
Screening CC1=C/C(=N\Nc2ccc(C(=O)O)cc2)CC1 returned MbtI inh 32.8, Mtb MenB inh 8.8, PV pol inh 104.0 and PV pol inh intensity 103.0.
`CN(C)C(=O)CSc1ccccc1C(=O)O` gave MbtI inh 4.5, Mtb MenB inh -17.4, PV pol inh 106.0 and PV pol inh intensity 109.0.
For Cc1ccc2c(c1)CCCN2C(=O)c1scc(S(=O)(=O)c2ccc(Cl)cc2)c1C the results were MbtI inh -1.2, Mtb MenB inh -22.1, PV pol inh 103.0 and PV pol inh intensity 95.0.
For CCN(CC)c1ccc(NC(=O)CSC(=O)c2ccccc2)cc1 the results were MbtI inh 35.2, PV pol inh 100.0 and PV pol inh intensity 102.0.
For CC1CCCCN1C(=O)CSc1nc(C2CC2)nc2ccccc12 (stereo not given) the results were MbtI inh -4.0, Mtb MenB inh 0.0, PV pol inh 101.0 and PV pol inh intensity 100.0.
CC(C)CSc1nnc2c3ccccc3n(C)c2n1 was read as MbtI inh -4.1, Mtb MenB inh 0.0, PV pol inh 102.0 and PV pol inh intensity 103.0.
Screening O=C(CCC1CC(=O)Nc2ccccc21)NCc1ccccc1 (stereo not given) returned MbtI inh 3.8, Mtb MenB inh -48.6, PV pol inh 102.0 and PV pol inh intensity 96.0.
For O=S1(=O)CCC(NCc2ccccc2)C1 (stereo not given) the results were MbtI inh -1.5, Mtb MenB inh -43.6, PV pol inh 102.0 and PV pol inh intensity 99.0.
Screening CC1(C)CC(=O)C(CC2=C(O)CC(C)(C)CC2=O)=C(O)C1 returned MbtI inh -4.1, PV pol inh 103.0 and PV pol inh intensity 104.0.
For COc1ccc(-n2cc(C(=O)NC(C)CCc3ccco3)c3ccccc3c2=O)cc1 (stereo not given) the results were MbtI inh -68.3, Mtb MenB inh -30.5, PV pol inh 106.0 and PV pol inh intensity 99.0.
N#Cc1cc(C#N)c(SCC(=O)N(c2ccccc2)C2CCCCC2)nc1N was read as MbtI inh 8.5, Mtb MenB inh -18.6, PV pol inh 130.0 and PV pol inh intensity 157.0.
`CCn1c2ccccc2c2cc(C=Nc3cccc(C#N)c3)ccc21` gave Mtb MenB inh 2.9, PV pol inh 101.0 and PV pol inh intensity 97.0.
For CCc1nc2cc(C)c(C)cc2nc1CC the results were MbtI inh 6.8, Mtb MenB inh -5.8, PV pol inh 103.0 and PV pol inh intensity 101.0.
`CCOC(=O)NC1CCN(CC)CC1` gave MbtI inh -1.8, Mtb MenB inh 9.8, PV pol inh 100.0 and PV pol inh intensity 102.0.
Screening N#Cc1sc2nc(-c3ccccc3)ccc2c1N returned MbtI inh -50.1, Mtb MenB inh -117.8, PV pol inh 99.0 and PV pol inh intensity 102.0.
`CC1CCCCN1S(=O)(=O)c1ccc(Cl)cc1` (stereo not given) gave Mtb MenB inh -12.3, PV pol inh 106.0 and PV pol inh intensity 109.0.
O=C1OC2(c3ccccc3)C3CCCC2C13 was read as MbtI inh -8.9, Mtb MenB inh -12.3, PV pol inh 106.0 and PV pol inh intensity 100.0.
Screening O=C(CC1CCC1)Nc1ccc(Oc2ccccc2)cc1 returned Mtb MenB inh -1.6, PV pol inh 101.0 and PV pol inh intensity 96.0.

Seven records drawn at random from the list so far, as already listed:
Screening O=C(CC1CCC1)Nc1ccc(Oc2ccccc2)cc1 returned Mtb MenB inh -1.6, PV pol inh 101.0 and PV pol inh intensity 96.0.
For CCc1nc2cc(C)c(C)cc2nc1CC the results were MbtI inh 6.8, Mtb MenB inh -5.8, PV pol inh 103.0 and PV pol inh intensity 101.0.
`CCn1c2ccccc2c2cc(C=Nc3cccc(C#N)c3)ccc21` gave Mtb MenB inh 2.9, PV pol inh 101.0 and PV pol inh intensity 97.0.
N#Cc1cc(C#N)c(SCC(=O)N(c2ccccc2)C2CCCCC2)nc1N was read as MbtI inh 8.5, Mtb MenB inh -18.6, PV pol inh 130.0 and PV pol inh intensity 157.0.
`CCOC(=O)NC1CCN(CC)CC1` gave MbtI inh -1.8, Mtb MenB inh 9.8, PV pol inh 100.0 and PV pol inh intensity 102.0.
`CC1CCCCN1S(=O)(=O)c1ccc(Cl)cc1` (stereo not given) gave Mtb MenB inh -12.3, PV pol inh 106.0 and PV pol inh intensity 109.0.
Screening N#Cc1sc2nc(-c3ccccc3)ccc2c1N returned MbtI inh -50.1, Mtb MenB inh -117.8, PV pol inh 99.0 and PV pol inh intensity 102.0.

High-throughput results from PubChem.

An unsorted share of the library. About 1.9% of those tested had a hit in this group.
